From PubChem
HPGD inh = qHTS Assay for Inhibitors of HPGD (15-Hydroxyprostaglandin Dehydrogenase); 15-hydroxyprostaglandin dehydrogenase [NAD(+)] (Homo sapiens), P15428; purified HPGD, NADH fluorescence kinetic, PGE2 substrate; Potency, µM, inactives show at the highest dose activity change, negative = inhibition, usual class: inhibitors; 4.3% of 150,000 active; active = well fitted inhibition curve with a large enough effect (not every such curve was filed as active); inconclusive = small, poorly fitted or top-dose-only effect, or another doubt; inactive = no such curve, though single readings can be large or run the other way;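 further: top concentration of the series not given in the record; plate controls included wells without enzyme; inactives centre near -10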
Target sequence (P15428 whole entry, looked up): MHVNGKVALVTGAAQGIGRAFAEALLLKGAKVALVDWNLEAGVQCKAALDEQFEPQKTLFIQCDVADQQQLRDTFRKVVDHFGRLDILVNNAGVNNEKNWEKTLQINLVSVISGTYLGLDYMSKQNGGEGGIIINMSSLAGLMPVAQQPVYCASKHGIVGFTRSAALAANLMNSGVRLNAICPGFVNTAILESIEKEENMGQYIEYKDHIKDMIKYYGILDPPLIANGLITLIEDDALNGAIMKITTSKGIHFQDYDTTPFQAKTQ
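20 nM HPGD preincubated 15 min at room temperature with compound in 50 mM Tris-HCl pH 8, 0.01% Tween 20. Started with 1 mM NAD+ and 30 uM prostaglandin E2; NADH fluorescence (360/450 nm) read 5 times over 30-s intervals, last minus first.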
Starred values were filed as active, the others as inactive; ? = inconclusive; & = joins results of further samples. On the % scale 0 is the no-effect control and ±100 the full control effect; potency means the concentration at half of the fitted maximal effect.

COc1cccc(C2c3c(-c4ccccc4)n[nH]c3C(=O)N2c2ccc(C(=O)O)cc2)c1 (configuration not stated)
  HPGD inh: -9%

CCn1ccc(=N)cc1
  HPGD inh: -1%

COCCOC(=O)c1c(C)nc(SCC(=O)Nc2cccc3ccccc23)c(C#N)c1-c1ccco1
  HPGD inh: -26%

Cc1ccc(-n2c(C)cc(C3=NNC(=NC4CC4)SC3)c2C)cc1C
  HPGD inh: ?

NC(=S)NNC(=O)Nc1ccc(Cl)c(Cl)c1
  HPGD inh: -20%

O=C1CCCN1CCCn1cnc2c([nH]c3ccc(F)cc32)c1=O
  HPGD inh: ?

COC(=O)c1ccc(CSc2nc3ccccc3o2)cc1
  HPGD inh: -19%

O=C(OCC#CCSc1nnc(-c2ccncc2)o1)c1sc2ccccc2c1Cl
  HPGD inh: 20µM*

CC1=C([N+](=O)[O-])C(c2cccc(Br)c2)C2=C(N1)c1ccccc1C2=O (configuration not stated)
  HPGD inh: 16µM*

O=C(O)CCCc1ccc2ccc3ccccc3c2c1
  HPGD inh: -11%

O=C(NCCN1CCN(Cc2ccccc2)CC1)C1c2ccccc2C(=O)N2CCc3ccccc3C12 (configuration not stated)
  HPGD inh: 0%

O=C1C2CCCN2C(=O)N1CCCCN1CCN(c2ccccc2)CC1 (configuration not stated)
  HPGD inh: -8%

CC(=O)C1=C(O)C(=O)N(CCCO)C1c1ccccc1 (configuration not stated)
  HPGD inh: ?

COC(=O)[C@@H](NC(=O)O[C@H]1C(=O)c2ccc(OC)cc2O[C@@H]1c1ccc2c(c1)OCO2)C(C)C
  HPGD inh: -9%&12%

COc1ccc(C(=O)C[n+]2ccc(-c3nnc4n3CCC4)cc2)cc1
  HPGD inh: -13%

COc1ccc(OC)c(S(=O)(=O)N2CCN(C34CC5CC(CC(C5)C3)C4)CC2)c1
  HPGD inh: -9%

O=C1CCC(Cc2ccccc2)N1 (configuration not stated)
  HPGD inh: -3%

CC1CCCCN1C(=O)c1ccc(C(=O)N2CCCCC2C)cc1 (configuration not stated)
  HPGD inh: ?

CCCc1cc(C(=O)NCC(C)C)no1
  HPGD inh: ?

CC1CCCN(CCSc2ccc(Cl)cc2)C1 (configuration not stated)
  HPGD inh: -12%

CC(=O)c1ccc(NS(=O)(=O)c2ccc(C)cc2)cc1
  HPGD inh: ?

CCOC(=O)CSc1cc(C)nc(N)n1
  HPGD inh: -7%

COc1cc([N+](=O)[O-])ccc1NC(=O)CCN1C(=O)C2C3CCC(C3)C2C1=O (configuration not stated)
  HPGD inh: -6%

COc1ccc(N2CCN(CCNC(=O)CCCn3c(=O)[nH]c4cc(Cl)ccc4c3=O)CC2)cc1
  HPGD inh: -5%

COCCN(C(=O)CNC(=O)c1cccs1)C(C(=O)NC1CCCCC1)c1ccco1 (configuration not stated)
  HPGD inh: -11%

Two compounds picked at random from the list so far:
O=C1CCC(Cc2ccccc2)N1 (configuration not stated)
  HPGD inh: -3%

CC1=C([N+](=O)[O-])C(c2cccc(Br)c2)C2=C(N1)c1ccccc1C2=O (configuration not stated)
  HPGD inh: 16µM*

Returning to the listing; the four compounds before the break are reprinted first.
CCOC(=O)CSc1cc(C)nc(N)n1
  HPGD inh: -7%

COc1cc([N+](=O)[O-])ccc1NC(=O)CCN1C(=O)C2C3CCC(C3)C2C1=O (configuration not stated)
  HPGD inh: -6%

COc1ccc(N2CCN(CCNC(=O)CCCn3c(=O)[nH]c4cc(Cl)ccc4c3=O)CC2)cc1
  HPGD inh: -5%

COCCN(C(=O)CNC(=O)c1cccs1)C(C(=O)NC1CCCCC1)c1ccco1 (configuration not stated)
  HPGD inh: -11%

COc1ccc(C(NC(C)=O)c2ccc3cccnc3c2O)c(OC)c1 (configuration not stated)
  HPGD inh: -5%

Cc1cc(NS(=O)(=O)c2ccc(NC(=O)CCCC(=O)O)cc2)nc(C)n1
  HPGD inh: -1%

O=C(OCc1nc2scc(-c3ccccc3)c2c(=O)[nH]1)c1cc(Cl)ccc1[N+](=O)[O-]
  HPGD inh: -19%

CCCC1(C(=O)O)NC(c2ccccc2O)C2C(=O)N(c3cccc(Cl)c3)C(=O)C21 (configuration not stated)
  HPGD inh: -3%

CC(C)CCNC(=O)CNC(=O)c1cccs1
  HPGD inh: -1%

COc1ccccc1CN(Cc1cc2c(C)ccc(C)c2[nH]c1=O)Cc1nnnn1Cc1ccco1
  HPGD inh: -7%

OCCN1CCN(CCC=C2c3ccccc3Sc3ccc(Cl)cc32)CC1
  HPGD inh: -7%

Cc1[nH]n(-c2ccccc2)c(=O)c1C=Nc1ccc2[nH]c(=O)[nH]c2c1
  HPGD inh: -10%

COc1cccc(C(=O)Nc2nc(-c3ccccc3)c(-c3ccccc3)o2)c1
  HPGD inh: -9%

CC(=O)c1cccc(NC(=O)Oc2ccccc2)c1
  HPGD inh: -6%

CC(=O)c1cccc(NC(=O)C2CCCN(S(=O)(=O)c3ccc(F)cc3)C2)c1 (configuration not stated)
  HPGD inh: -11%

Cc1ccc2c(c1)N(CCCC(=O)NCC1COc3ccccc3O1)C(=O)CO2 (configuration not stated)
  HPGD inh: -12%

CC(C)c1ccc(/C=C2\CC/C(=C\C=N\N(C)C)C2=O)cc1
  HPGD inh: -23%

CC(C)c1c(O)ccc2c1CCC1[C@@](C)(CO)CCC[C@@]21C (some centres not stated)
  HPGD inh: ?

CCOC(=O)C1CCCN(Cc2cc(Br)ccc2OC)C1 (configuration not stated)
  HPGD inh: -3%

CC(C)(C)n1nnnc1C(c1cccs1)N(Cc1cccnc1)CC1CCCO1 (configuration not stated)
  HPGD inh: -6%

O=C1NC(O)=NC1(c1ccccc1)c1ccccc1
  HPGD inh: -18%

CCOC(=O)C1CCCN(C/C(O)=C(\C#N)c2nc(-c3ccc(Cl)cc3)cs2)C1 (configuration not stated)
  HPGD inh: -11%

Cc1ccc2oc(-c3cccc(NC(=O)c4ccc(Br)o4)c3C)nc2c1
  HPGD inh: 3%

O=C(Nc1cccc(O)c1)c1cc(-c2ccco2)on1
  HPGD inh: -15%

O=S(=O)(N1CCCCC1)n1c(Cc2ccccc2)nc2ccccc21
  HPGD inh: 0%

COc1ccc(NC(C)=O)cc1NC(C)C(=O)Nc1cccc2ccccc12 (configuration not stated)
  HPGD inh: 0%

Cc1ccc(OCCn2c(=O)cnc3ccccc32)cc1
  HPGD inh: -26%

CCOc1ccccc1N1CC(C(=O)Nc2ccc(C(=O)O)cc2)CC1=O (configuration not stated)
  HPGD inh: -10%

Cc1cc2cc(CNC(=O)Nc3cccc(Cl)c3)ccc2n1C
  HPGD inh: -13%

CC1(C)CC(NC(=O)C(F)(F)F)CC(C)(C)N1OC(=O)c1ccco1
  HPGD inh: -1%

CC(Sc1nnc(-c2cccs2)n1-c1ccccc1)C(=O)NCc1ccc2c(c1)OCO2 (configuration not stated)
  HPGD inh: -2%

CCN(CC)S(=O)(=O)c1ccc2[nH]c(=O)[nH]c2c1
  HPGD inh: -10%

Cc1noc(C)c1S(=O)(=O)N1CCCC(C(=O)Nc2ccc(Cl)cn2)C1 (configuration not stated)
  HPGD inh: -7%

Fc1cccc(F)c1C(Nc1nncs1)Nc1nncs1
  HPGD inh: -8%

COc1ncc2nc(-c3ccccc3)c(=O)n(Cc3cccs3)c2n1
  HPGD inh: ?

O=C(c1ccncc1)N1CCC2(CC1)CN(c1ccccn1)C2
  HPGD inh: ?

FC(F)(F)Oc1ccc(NC(=S)NCc2ccccc2)cc1
  HPGD inh: -11%

Cc1c(C)c2ccc(OC3CCCCC3=O)cc2oc1=O (configuration not stated)
  HPGD inh: 23%

CS(=O)(=O)Nc1ccc(C(=O)NCCSCc2ccco2)cc1
  HPGD inh: -22%

O=C(O)c1c[nH]c2c(ccc3[nH]cc(C(=O)O)c(=O)c32)c1=O
  HPGD inh: -13%

Cc1cccc(N2C(=O)CC(N(C(=O)c3ccco3)c3cccc(C)c3)C2=O)c1 (configuration not stated)
  HPGD inh: -8%

O=C1NCCCC2c3c(cc(Br)c(O)c3Br)OC12N1CCCCC1 (configuration not stated)
  HPGD inh: 13µM*

NC(Cc1c[nH]c2ccccc12)C(=O)O (configuration not stated)
  HPGD inh: -12%

C/C=C/C(=O)C[C@H]1CC[C@@H](C)[C@@H](CCO)O1
  HPGD inh: -2%

Cn1c(C(=O)NCCC2=CCCCC2)cc2c(=O)n3ccccc3nc21
  HPGD inh: ?

Cn1c(=O)[nH]c(=O)c2[nH]c(N(Cc3ccccc3)Cc3ccccc3)nc21
  HPGD inh: -14%

O=C(Nc1cc([N+](=O)[O-])ccc1Cl)C(Sc1ccccc1)c1ccccc1 (configuration not stated)
  HPGD inh: -19%

CCOC(=O)c1c(C)n(C)c2ccc(OC)c(NS(=O)(=O)CC)c12
  HPGD inh: -8%

COC(=O)c1c(C)cc(OC(=O)c2c(C)cc(O)c(C=O)c2O)c(C)c1O
  HPGD inh: -1%

CC(=O)NNc1ccc(C(F)(F)F)cc1[N+](=O)[O-]
  HPGD inh: -5%

CCOC1CC(C)(C)NC(=S)N1 (configuration not stated)
  HPGD inh: -9%

CCOC(=O)c1c(C)[nH]c(/C(C)=N/O)c1C
  HPGD inh: ?

COc1ccc(CSc2cccc3cccnc23)cc1[N+](=O)[O-]
  HPGD inh: ?

O=[N+]([O-])c1ccc(Nc2nc(N/N=C\c3ccc4c(c3)OCO4)nc(N3CCCCC3)n2)cc1
  HPGD inh: -19%

O=[n+]1c2c(n([O-])c3cc(F)ccc31)CCCC2
  HPGD inh: -22%

COCCN(CCOC)c1nc(C)nc2c1nc(-c1ccccc1)n2CC1CCN(C)CC1
  HPGD inh: ?

NC1=C(O)C(=O)[C@H](c2c[nH]c3ccc(OCc4ccccc4)cc23)O1
  HPGD inh: -7%

c1ccc(OCc2nn3c(-c4cccnc4)nnc3s2)cc1
  HPGD inh: ?

CC(C)COc1ccccc1C(=O)NC(CO)C(=O)O (configuration not stated)
  HPGD inh: -8%

S=C(NCc1ccc(Cl)cc1)Nc1ccccc1Cl
  HPGD inh: -6%

ClCCl
  HPGD inh: -7%

O=C(OCn1nnc2ccccc2c1=O)c1ccco1
  HPGD inh: -6%

CCC1(COC(NC(=O)c2cccnc2)(C(F)(F)F)C(F)(F)F)COC1
  HPGD inh: 2%

Cc1nn(C)cc1/C=C/C(=O)c1ccc(O)cc1
  HPGD inh: -17%

O=C(CCCc1ccccn1)c1ccccc1
  HPGD inh: -4%

COC(=O)c1ccc(N2CN=C(c3ccc(C)cc3)NC2=S)cc1
  HPGD inh: -15%

Cc1c(C(=O)NCc2ccc3c(c2)OCO3)oc2ccc(S(=O)(=O)N3CCCCCC3)cc12
  HPGD inh: -26%

Clc1ccc(CNCc2cccs2)c(Cl)c1
  HPGD inh: -6%

CC1(C)CC(NS(=O)(=O)c2ccc(S(=O)(=O)N3CCOCC3)cc2)CCO1 (configuration not stated)
  HPGD inh: 2%

COc1ccc(C2SCCN2C(=S)Nc2ccc(F)cc2)cc1 (configuration not stated)
  HPGD inh: -18%

CCC(C)N(NC(C)=O)c1nc(Cl)nc(NC(C)(C)C)n1 (configuration not stated)
  HPGD inh: 3%

O=C(O)c1ccc(C(=O)O)c2c(C(=O)O)ccc(C(=O)O)c12
  HPGD inh: 0%

COc1ccc(C(=O)N(CCN2CCOCC2)CC(=O)NC2CCCC2)cc1OC
  HPGD inh: 1%

CN1CCN(S(=O)(=O)c2ccc(NC(=O)c3ccc(Br)o3)cc2)CC1
  HPGD inh: -5%

COC(=O)c1ccc(Oc2nc(NC(C)C)nc(N(C)C)n2)cc1
  HPGD inh: -12%

O=C(NCc1ccc2c(c1)OCO2)Oc1ccccc1
  HPGD inh: -19%

O=C(C1CCCN(S(=O)(=O)c2cccc3cccnc23)C1)N1CCN(c2ccccc2F)CC1 (configuration not stated)
  HPGD inh: -16%

Cc1cccc(NC(=O)CC2NC3CCCCC3NC2=O)c1 (configuration not stated)
  HPGD inh: -9%

Cc1ccc(NC(=O)C(C)c2ccc(-c3ccccc3)c(F)c2)c(C)c1 (configuration not stated)
  HPGD inh: -5%

Cc1cc(C)c(S(=O)(=O)NCCC2CCCN2C)c(C)c1 (configuration not stated)
  HPGD inh: -6%

COc1cccc2c1C(=O)c1c(O)c3c(c(O)c1C2=O)C[C@@](O)(C(=O)CO)C[C@H]3O[C@H]1C[C@@H](N)[C@H](O)[C@@H](C)O1.[W]
  HPGD inh: -3%

COc1cc(OC)cc(-c2cc3nc4c(c(N5CCN(c6ncccn6)CC5)n3n2)CCCC4)c1
  HPGD inh: ?

O=C(Cn1cc2c(n1)CCCC2)Nc1ccccc1Br
  HPGD inh: ?

CCn1cc(/C=C/C(=O)Nc2c(C)nn(Cc3ccccc3)c2C)cn1
  HPGD inh: -12%

CCOCCCNC(=O)Cc1c(C(=O)O)[nH]c2ccc(Cl)cc12
  HPGD inh: -13%

COc1ccc([N+](=O)[O-])cc1NC(=O)CC(c1ccccc1)c1ccccc1
  HPGD inh: ?

COc1ccccc1NC(=O)CSc1nc(O)cc(=O)n1C
  HPGD inh: 0%

Cc1cccc(C)c1NC(=O)CSc1nnnn1-c1ccc(C(=O)O)cc1
  HPGD inh: -27%

Cc1ccc(-n2c(C)cc(C(=O)CN3CCCCC3)c2C)cc1
  HPGD inh: 13µM*

CCC(C)c1ccc(Nc2ncccc2C#N)cc1 (configuration not stated)
  HPGD inh: 18µM*

C/C(=N\Nc1nnc(-c2ccccc2)c(-c2ccccc2)n1)c1cccc([N+](=O)[O-])c1
  HPGD inh: 6.3µM*

COC(=O)CSc1ncc(OC)c(OC)n1
  HPGD inh: -2%

Cc1ccc(NC(=O)COC(=O)Cn2nc(C)c([N+](=O)[O-])c2C)c([N+](=O)[O-])c1
  HPGD inh: -24%

Cc1ccc(-c2nn(-c3ccccc3)cc2/C=C/C(=O)Nc2nccs2)cc1
  HPGD inh: ?

CCN(CC)S(=O)(=O)c1ccc(OC)c(NC(=O)C(C)Oc2ccc3c(C)cc(=O)oc3c2)c1 (configuration not stated)
  HPGD inh: -24%

Not all compounds are listed; rates above refer to the full screens.
